From PubChem
Calb biofilm kill = clotrimazole potentiators killing C. albicans biofilm, primary screen, 4-compound mixtures; C. albicans biofilm persisters + clotrimazole, fluorescence viability; primary screen in compound mixtures of four per well; inhibition, % at 7.6 µM; 120,000 tested, 0.02% active; AID 1242, 2008;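 active = inhibition above 30.3% in the primary screen of four-compound pools, then above 30% when the compound was retested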;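 note: compounds exposed to preformed 24 h biofilms for 48 h; the number belongs to the whole pool; some results filed as inactive read as strong as hits; inactives centre near 12; 0% = biofilm with clotrimazole alone and 100% = kill control; retested singly at about 60 µM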
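Test system: C. albicans biofilms. Buffer or medium: RPMI/MOPS medium, pH 7.0. Timing: 48 h compound exposure at 37 °C. Technique: Alamar Blue fluorescence. Evaluation: percent inhibition of biofilm viability.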
The depositor's hits bear a star.

structure	Calb biofilm kill
Cc1ccccc1N1C(=O)C(Cc2ccc(F)cc2)S/C1=C(\C#N)C(N)=O (stereo not given)	22
CN(C)S(=O)(=O)c1cccc(NC(=S)Nc2cccc3cnccc23)c1	-9
CC(=O)c1c(C)oc2c1C(=O)c1ccccc1C2=O	18
COC(=O)C1C(c2ccc(OC)cc2)Nc2nnc(C(F)(F)F)n2C1(C)O (stereo not given)	15
COC(=O)C1=C(C)N(c2ccc(F)cc2)/C(=C/c2ccc(O)cc2)C1=O	16
CCCC(=O)OC1CCS(=O)(=O)c2sccc21 (stereo not given)	20
CCC(=O)Nc1ccc(C(=O)CSc2nnc(-c3ccc(NS(=O)(=O)CC)cc3)o2)cc1OC	15
Cc1ccc(CN2CCc3c(OCc4ccc(F)cc4)cccc3C2=O)cc1	12
COc1ccc(Cl)cc1C(=O)NNC(=O)CSc1nnnn1C	15
COc1ccc(OC)c2[nH]c(=O)c(CCNC(=S)NC(C)(C)C)cc12	0
Cc1c(S(=O)(=O)N2CCCC(C(=O)O)C2)cnn1C (stereo not given)	12
COc1ccc(C(=O)CN2CCN(S(=O)(=O)c3cccc([N+](=O)[O-])c3)CC2)cc1OC	7
CCCN(CC1CC1)C(=O)COC(=O)c1ccc(CNS(=O)(=O)c2ccc(F)c(Cl)c2)cc1	5
CCC1(C)Cc2nc3[nH]c(=S)n(-c4ccccc4)c(=O)c3cc2CO1 (stereo not given)	9
COc1ccc(NC(=S)NCCNC(C)=O)cc1	13
C=CCc1c(C)nc2ccc(C(=O)OCC)cc2c1Cl	19
O=[N+]([O-])c1cccc(-c2nnc(-c3ccccc3)o2)c1	8
O=C(Nc1ccc(S(=O)(=O)Nc2nccs2)cc1)c1cc(-c2ccccc2)nc2ccccc12	9
COC(=O)c1cc(Sc2cccc(Cl)c2Cl)ccn1	16
Cc1nn(C2CCS(=O)(=O)C2)c(Cl)c1/C=C/C(=O)OCC(N)=O (stereo not given)	12
COc1cc([N+](=O)[O-])ccc1NC(=O)CN1CCCC1	18
COc1ccc(/C=C2\C(=O)OCc3cc(OC)c(OC)cc32)cc1OC	10
O=C(O)C1=C[C@H](c2cccs2)C[C@H](OCc2ccc(CO)cc2)O1	21
Cc1nnc(SCC(=O)c2ccc(Br)cc2)s1	7
CCCCCC(=O)Nc1cccc(C2=NOC3(C2)C[C@H](C(N)=O)N(C(=O)c2ccccc2)C3)c1 (stereo not given in full)	14
Cc1ccc(S(=O)(=O)c2cnc3cc(C)nn3c2N)cc1	8
COCCn1c(=O)c2ccccc2c2ccccc2c1=O	10
COc1ccc(CCNC(=O)c2cc(C(=O)c3cc(C)ccc3O)cn(CCc3ccc(OC)cc3)c2=O)cc1	6
CC(C)(C)OC(=O)NCCCC[C@@H](C(=O)N1CCN(C(=O)OC(C)(C)C)CC1)n1cc(CCC(=O)O)nn1	21
Cc1c([C@@H]2C[C@H]3CN(Cc4cccc(Cl)c4)C(=O)[C@]34CCCN24)cnn1C	8

Overlap with the part before: 2 entries, then new ones.
structure	Calb biofilm kill
CC(C)(C)OC(=O)NCCCC[C@@H](C(=O)N1CCN(C(=O)OC(C)(C)C)CC1)n1cc(CCC(=O)O)nn1	21
Cc1c([C@@H]2C[C@H]3CN(Cc4cccc(Cl)c4)C(=O)[C@]34CCCN24)cnn1C	8
CCCCNC(=O)Nc1nc2ccc(CC)cc2s1	6
CCOc1ccc(C(=O)CC(Sc2ccc(C)cc2)C(=O)O)cc1 (stereo not given)	7
COc1ccc(NC(=O)c2ccc(=O)[nH]c2)cc1S(=O)(=O)N1CCCCC1	11
C=CCn1c(C)csc1=Nc1ccc(C(=O)O)cc1	9
CCOc1ccc(/C=N/Nc2ccccn2)cc1OC	20
CCOc1cc(/C=N/NC(=O)C(=O)NC2CC2)cc(Br)c1O	6
COc1cccc(CSc2nc3ccncc3[nH]2)c1	19
Cc1[nH]nc2c1C(c1c[nH]c3ccccc13)C(C#N)=C(N)O2 (stereo not given)	21
Cc1nc2c(cnn2-c2ccccc2)c(=O)[nH]1	3
COc1ccc(-c2cc(C(F)(F)F)nc(NCc3cccs3)n2)cc1	6
COCCNCC1C(Oc2ccc(Cl)cc2)C(=O)N1c1ccccc1C (stereo not given)	16
COc1ccc(N2C(=O)CN(Cc3ccc(OC)c(OC)c3)C2=S)cc1	2
Cc1cccc(Nc2nnc(SCC3CCCCO3)s2)c1C (stereo not given)	15
Cc1ccc2nc(-c3ccc(NC(=O)CNC4CC4)cc3)sc2c1	15
COC(=O)C1CCN(c2ccc([N+](=O)[O-])cc2[N+](=O)[O-])CC1	-1
Cc1ccc(NC(=O)CSC2=NCCN2)cc1	11
O=C(CCc1ccccc1)Nc1ccc(F)c([N+](=O)[O-])c1	17
COc1cc(-c2nc(-c3cccnc3)no2)cc(OC)c1OC	13
O=C(COc1cccnc1[N+](=O)[O-])Nc1cccc(S(=O)(=O)N2CCCCC2)c1	5
Cn1nc(C(F)(F)F)c(-c2ccccc2)c1NC(=O)CSCC(=O)O	-6
O=C(O)C(O)C(O)c1nc2ccccc2[nH]1 (stereo not given)	18
CCN(Cc1cc2cc(C)ccc2[nH]c1=O)C(=O)c1cccc([N+](=O)[O-])c1	31
CCC(C)C(NC(=O)OCc1ccccc1)C(=O)NC(Cc1ccc(O)cc1)C(=O)OC (stereo not given)	16
O=C(NCCO)C(=O)NCC1OCCCN1S(=O)(=O)c1cccs1 (stereo not given)	-7
NC(=O)c1cc2cc([N+](=O)[O-])ccc2oc1=O	15
S=C(Nc1cccnc1)N1CCCCC1	13
C/C(=N\Nc1nc2ccccc2[nH]1)c1ccc2c(c1)OCO2	23
CCOC(=O)c1c(NC(=O)C2CCCO2)sc(C)c1C (stereo not given)	0
COc1ccc2[nH]cc(CCNC(=O)c3ccc([N+](=O)[O-])cc3)c2c1	18
CN(C)/C=C/C(=C\C(=O)C(F)(F)F)Nc1ccc(C(F)(F)F)cc1	17
O=C1CC(c2ccco2)CC(O)=C1C=Nc1cc(Cl)ccc1Cl (stereo not given)	5
COc1ccc(CN=C2NN=C(c3ccccc3)CS2)cc1	13
COC(=O)C1CC(O)CN1C(=O)NC1CCCCC1 (stereo not given)	5
COc1ccc(CCNC(=O)COC(=O)/C=C/c2cccs2)cc1	10
Cc1c(NS(=O)(=O)c2ccc(S(=O)(=O)c3ccccc3)s2)c(=O)n(-c2ccccc2)n1C	9
CCOc1cc(/C=N/NC(=O)c2cccnc2)ccc1OC(=O)c1ccco1	2
Oc1ccc(O)c(Cc2nc3ccccc3[nH]2)c1	18
N#Cc1ccc(NC(=O)COC(=O)CCc2ccc(S(=O)(=O)N3CCCCC3)cc2)cc1	13
Cc1ccc(-c2csc(NC(=O)C[n+]3cc(-c4ccc(C)cc4)n4c3CCC4)n2)cc1	9
CCOc1ccc(C(=O)NC(=S)Nc2ccc(NC(=O)C(C)C)cc2)cc1[N+](=O)[O-]	6
O=C(/C=C/c1cn(-c2ccccc2)nc1-c1cccnc1)c1ccco1	13
Cn1cc(C(=O)Nc2ccc(Cl)cc2)c(C(F)(F)F)n1	12
Cc1nnc(NC(=O)CSc2nc3[nH]ncc3c(=O)[nH]2)s1	18
CCOc1ccccc1C(=O)NC(C(=O)Nc1cccnc1)C(C)C (stereo not given)	22
N#C/C(=C\c1ccc(-c2ccc(C(=O)O)cc2)o1)c1nc2ccccc2[nH]1	19
CC(C)CN(C(=O)COC(=O)c1ccc2ccccc2n1)C1CCS(=O)(=O)C1 (stereo not given)	11
O=S(=O)(NCCNc1nccc(C(F)(F)F)n1)c1ccccc1	19
CCOC(=O)C1CCN(C(=O)c2ccc3snnc3c2)CC1	8
c1ncn(C23CC4CC(CC(C4)C2)C3)n1	13
CN(C)c1ccnc(Nc2ccccc2)c1C#N	12
Cc1occc1C(=O)N/N=C/c1ccc(N(C)C)cc1	32
CCN(CC)CC#Cc1ccc(C)cc1	22
O=C(Nc1ccc(F)cc1)N1CCN(c2ccc(F)cc2)CC1	12
CCn1c(-c2cc(-c3ccc(C)c(C)c3)nc3ccccc23)n[nH]c1=S	-11
COc1ccccc1CNC(=O)COC(=O)Cc1cccs1	15
COc1cc(Cl)c(C)cc1NC(=O)CSc1cc(Cl)ccc1Cl	8
CCOc1ccc(CCNC(=O)C(CCC(N)=O)NC(=O)OCc2ccccc2)cc1OCC (stereo not given)	12
c1ccc(-c2nc(-c3ccco3)n3ccccc23)cc1	20
Cc1ccc(C)c(N2CCN(c3ccc(N4C(=O)COCC4=O)cc3[N+](=O)[O-])CC2)c1	8
COc1ccccc1CNCC(=O)Nc1cc(S(=O)(=O)N2CCCCCC2)ccc1Cl	17

Copied from above, four compounds:
structure	Calb biofilm kill
COc1cc(Cl)c(C)cc1NC(=O)CSc1cc(Cl)ccc1Cl	8
CCOc1ccc(CCNC(=O)C(CCC(N)=O)NC(=O)OCc2ccccc2)cc1OCC (stereo not given)	12
c1ccc(-c2nc(-c3ccco3)n3ccccc23)cc1	20
Cc1ccc(C)c(N2CCN(c3ccc(N4C(=O)COCC4=O)cc3[N+](=O)[O-])CC2)c1	8

(next part)
structure	Calb biofilm kill
O=C(CSc1n[nH]c(=O)[nH]c1=O)Nc1cccc(S(=O)(=O)N2CCOCC2)c1	15
COc1ccc(-c2nc(=S)n3ccsc3n2)cc1OC	12
O=C(Nc1ccc(F)cc1F)N1CCC(c2nc3ccccc3o2)CC1	14
NNC(=O)COc1ccc(C(F)(F)F)cc1	13
CCN1CCN(c2ccc([N+](=O)[O-])c(Sc3nc4ccccc4[nH]3)c2)CC1	10
COc1ccc2nc(SCC(=O)C(C)(C)C)[nH]c2c1	21
COc1cc(CCN2C(=O)N[C@@H](c3cccc(C(F)(F)F)c3)C(C(C)=O)=C2C)cc(OC)c1OC	6
CC(Cc1ccsc1)NC(=O)CCc1nnc(COc2ccccc2)o1 (stereo not given)	23
CCN1/C(=C/c2ccc3cc(C)ccc3[n+]2C)Sc2ccc3sccc3c21	1
COc1ccc(-c2cc(C(=O)OCC(=O)c3c(N)n(C)c(=O)n(C)c3=O)c3ccccc3n2)cc1	11
CCOc1ccc(CNC(=O)CCS(=O)(=O)Cc2ccc(C)cc2)cc1OC	15
Cn1c(=O)c2c(ncn2CC(=O)N2CCCCCC2)n(C)c1=O	19
O=c1[nH]c2ccccc2cc1CN(c1ccccc1)S(=O)(=O)c1ccccc1	3
C#CCNC(=O)C1=C[C@@H](c2ccccc2)[C@H](CCCO)[C@@H](OCC)O1	20
O=C(CN1CCOc2ccccc21)NCc1ccc(Cl)cc1	1
Cc1cc(C)cc(C(=O)NCC(=O)OCC(=O)N(C)c2ccccc2)c1	20
Cc1cccc(N2CCN(C(=S)c3ccc([N+](=O)[O-])cc3)CC2)c1	8
O=C(CCc1nc2ccccc2s1)Nc1cccnc1	14
O=c1c(Cc2ccccc2)c(O)ccn1Cc1ccco1	10
C/C(=N\NC(=O)Cc1ccc(F)cc1)c1ccc(O)cc1	26
COc1cccc(/C=C/C(=O)OCC(=O)NCCc2ccccc2)c1	18
CC(=O)Oc1cccc(N2C(=O)c3ccccc3C2=O)c1	12
CCOC(=O)NC(=O)CSc1nnc(C2CC2)n1Cc1ccco1	13
N=c1c2c3c(sc2ncn1Nc1ccccc1)CCC3	8
COc1ccc(C2C3C(=O)N(N(C)c4ncc(C(F)(F)F)cc4Cl)C(=O)C3ON2C)cc1 (stereo not given)	14
COCCN(C(=S)Nc1cccc(OC)c1)C1CCN(C(C)=O)CC1	16
Cc1ccc(NC(=S)NN(C)c2cc(C)nc(C)n2)cc1	12
COc1cccc(CC2(CO)CCCN(Cc3cn[nH]c3-c3ccccc3)C2)c1 (stereo not given)	1
CN(c1nc(-c2ccc(Br)cc2)cs1)C1CCS(=O)(=O)C1 (stereo not given)	8
O=C(NC1CCCC1)C1C2C=CC3(CN(Cc4cccs4)C(=O)C13)O2 (stereo not given)	9
COc1cc(C)c(Br)cc1S(=O)(=O)NCCN1CCOCC1	14
O=C(O)c1ccccc1CSc1nnc2c(n1)[nH]c1ccccc12	13
COc1ccc(CCN2C(=O)NC(NC(=O)C(C)(C)C)(C(F)(F)F)C2=O)cc1OC (stereo not given)	8
O=c1c2ccccc2ncn1CCCCOc1ccc(Br)cc1	13
COC(=O)C1=C(C(=O)OC)C2(OC1c1ccccc1C)C(=O)c1ccccc1C2=O (stereo not given)	11
CC(=O)c1cccc(NC(=O)c2ccoc2C)c1	18
C/C(=C\C(=O)C(F)(F)F)Nc1ccc(C)cc1	19
COc1ccc(Nc2nc(C)nc3sc4c(c23)CCC4)cc1O	14
COc1ccccc1CNC(=O)c1cn(C)c2ccc(S(=O)(=O)N3CCCC3)cc2c1=O	4
CCOC(=O)c1cc(-c2ccccc2)sc1NC(=O)C(C)N1C(=O)c2ccccc2C1=O (stereo not given)	12
COc1cc(/C=N/n2c(-c3cc(C)[nH]n3)n[nH]c2=S)ccc1O	26
CCN(CC)S(=O)(=O)c1ccc(C(=O)Nc2nnc(NC(=S)Nc3ccccc3)s2)cc1	12
COC(=O)C(NC(=O)c1ccco1)(Nc1cc(C)ccn1)C(F)(F)F (stereo not given)	6
Clc1cccc(CN2CCN(c3nc4nonc4nc3NC3CC3)CC2)c1	-14
CC(=O)c1cn(C)c(=O)[nH]c1=O	6

These rows are one share of the data, so the mix of outcomes need not match the whole.
